Bioassay records (PubChem)
HCMV UL50-53 inh: inhibitors of HCMV UL50-UL53 interaction, biochemical, HTRF | actives 0.15% (n = 190,000) | inhibition, % (no concentration beside the values) | HCMV UL50-UL53 nuclear egress complex (human cytomegalovirus) | normalized percent inhibition;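 active = both replicates at 50% or more, plus weaker picks with an unusually low signal ratio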;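 note: stock transfer was 100 nL into about 20 µL; 0% = negative control wells and 100% = wells with untagged competitor protein; inactives centre near -12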
* hit, by the source's call; & = joins results of further samples. Not all compounds are listed (hit frequency here may not be typical).

Start of the data: the first 15 records, to show the layout:
SMILES	HCMV UL50-53 inh
O=C(/C=C/c1cccs1)Nc1ccccc1-c1nc2ccccc2o1	4
Cc1cccc(C)c1NC(=S)N(CCC#N)C(C)C	-14
CCOC(=O)c1c(NC(=O)C(C)Sc2ncccn2)sc2c1CCC2 (configuration not stated)	1
CN(C1=CC(=O)c2ccccc2C1=O)c1ccccc1	51
CCOc1cc(C(=O)Nc2ccc(Cl)c(-c3nc4ccccc4[nH]3)c2)cc(OCC)c1OCC	-6
OCCSc1ncnc2sc3c(c12)CCC3	-8
CCCCC[C@H](O)/C=C/[C@H]1C(=O)C[C@H](O)[C@@H]1C/C=C\CCCC(=O)OC	-16&-16
COc1cccc2c(=O)n(Cc3ccc4ncccc4c3)cnc12	50&50
CC(C)[C@H](NC(=O)[C@H](CC(=O)O)NC(=O)[C@H](CCCCN)NC(=O)[C@@H](N)CCCN=C(N)N)C(=O)N[C@@H](Cc1ccc(O)cc1)C(=O)O	-28
COc1cc(OC)c2c3c(c(=O)oc2c1)CCC3	-11
CCCCc1cc(=O)[nH]c(-c2ccc(CN3CCC(F)(F)CC3)cc2)n1	-14
NC(=NC1C2CC3CC(C2)CC1C3)Nc1ccc(I)cc1 (configuration not stated)	7
C=CS(=O)(=O)Cc1ccccc1	29
CC(=O)N[C@@H](CSC/C=C(\C)CCC=C(C)C)C(=O)O	2
COc1ccccc1C(=O)N(Cc1cccs1)C1CCS(=O)(=O)C1 (configuration not stated)	-7

The listing, from the first entry:
SMILES	HCMV UL50-53 inh
O=C(/C=C/c1cccs1)Nc1ccccc1-c1nc2ccccc2o1	4
Cc1cccc(C)c1NC(=S)N(CCC#N)C(C)C	-14
CCOC(=O)c1c(NC(=O)C(C)Sc2ncccn2)sc2c1CCC2 (configuration not stated)	1
CN(C1=CC(=O)c2ccccc2C1=O)c1ccccc1	51
CCOc1cc(C(=O)Nc2ccc(Cl)c(-c3nc4ccccc4[nH]3)c2)cc(OCC)c1OCC	-6
OCCSc1ncnc2sc3c(c12)CCC3	-8
CCCCC[C@H](O)/C=C/[C@H]1C(=O)C[C@H](O)[C@@H]1C/C=C\CCCC(=O)OC	-16&-16
COc1cccc2c(=O)n(Cc3ccc4ncccc4c3)cnc12	50&50
CC(C)[C@H](NC(=O)[C@H](CC(=O)O)NC(=O)[C@H](CCCCN)NC(=O)[C@@H](N)CCCN=C(N)N)C(=O)N[C@@H](Cc1ccc(O)cc1)C(=O)O	-28
COc1cc(OC)c2c3c(c(=O)oc2c1)CCC3	-11
CCCCc1cc(=O)[nH]c(-c2ccc(CN3CCC(F)(F)CC3)cc2)n1	-14
NC(=NC1C2CC3CC(C2)CC1C3)Nc1ccc(I)cc1 (configuration not stated)	7
C=CS(=O)(=O)Cc1ccccc1	29
CC(=O)N[C@@H](CSC/C=C(\C)CCC=C(C)C)C(=O)O	2
COc1ccccc1C(=O)N(Cc1cccs1)C1CCS(=O)(=O)C1 (configuration not stated)	-7
CCC(C)[C@H]1O[C@]2(C=C[C@@H]1C)C[C@@H]1C[C@@H](C/C=C(\C)[C@@H](OC3C[C@H](OC)C(O[C@H]4C[C@H](OC)[C@@H](NC(C)=O)[C@H](C)O4)[C@H](C)O3)[C@@H](C)/C=C/C=C3\CO[C@@H]4[C@H](O)C(C)=C[C@@H](C(=O)O1)[C@]34O)O2 (some centres not stated)	-40
O=C(NCCn1ccc2ccccc21)c1c(F)cccc1F	-14
CCCN(C(=O)c1cccc(C#CC(C)(C)O)c1)C(CC)CC	-24
O=C(C1CCCCCC1)N1CCc2[nH]nc(C3CCC3)c2C1	-3
CCOC(=O)c1ccc(NC(=O)CSc2nccn2-c2ccccc2)cc1	-19
CC1(C)C2(c3nc(Cc4c(F)cccc4Cl)no3)CC[C@@]1(C)C(=O)O2	-9
CC(O)[C@H]1C(=O)N2C(C(=O)OCOC(=O)C(C)(C)C)=C(SC3CN(C4=NCCS4)C3)C(C)[C@@H]12 (some centres not stated)	-4
COc1ccc(CCNC(=O)CCn2c(=O)sc3ccccc32)cc1OC	0
COc1cc(C(=O)NC2CCN(C)CC2)ccc1Nc1ncc2c(n1)N(C1CCCCC1)CCC(=O)N2C	-7
CC1SC(C)C(=O)N(CC(=O)NCc2ccccc2)C1=O (configuration not stated)	-5
Cc1cc2cc(CNS(=O)(=O)c3ccccc3)ccc2[nH]1	-5
O=c1oc2cc(O)ccc2cc1S(=O)(=O)c1ccccc1	-14
CCCCC/C=C\C=C\[C@H](O)CCCCCCCC(=O)O	-11
Cc1cc(-c2ccccc2)nc(SCC(=O)N2CCCC2)n1	-21
CNCc1cn(C2CCN(CCC(C)CC(C)(C)C)CC2)nn1 (configuration not stated)	-24
CN(CC(=O)N1CCN(c2ccccc2F)CC1)c1cc2c(cc1Cl)NC(=O)CO2	-7
N#Cc1ccsc1NC(=O)CCOc1ccccc1	-4
Cc1sc2ncnc(SC3CCCCN(C(=O)c4ccccc4)C3=O)c2c1C (configuration not stated)	3

Laid out differently: 2 of the compounds above
| Structure | HCMV UL50-53 inh |
| --- | --- |
| CC1SC(C)C(=O)N(CC(=O)NCc2ccccc2)C1=O (configuration not stated) | -5 |
| O=c1oc2cc(O)ccc2cc1S(=O)(=O)c1ccccc1 | -14 |
